# Compound activity from PubChem.
# Six1-Eya2 blk: inhibitors of human Six1/Eya2 interaction. Q15475+O00167. AlphaScreen GST-Six1/His-Eya2 binding, biochemical; hits give low values; control for the full effect not named in the record. activity change, % (concentration not given with the values). 0.56% of 360,000 active. AID 651725; in the data active = activity change below about -65%; inconclusive = about -30% to -65%; inactive = above about -30%; note: % is set by controls: 0 for no effect and ±100 for the full control effect
# Target sequence (O00167 whole entry, looked up): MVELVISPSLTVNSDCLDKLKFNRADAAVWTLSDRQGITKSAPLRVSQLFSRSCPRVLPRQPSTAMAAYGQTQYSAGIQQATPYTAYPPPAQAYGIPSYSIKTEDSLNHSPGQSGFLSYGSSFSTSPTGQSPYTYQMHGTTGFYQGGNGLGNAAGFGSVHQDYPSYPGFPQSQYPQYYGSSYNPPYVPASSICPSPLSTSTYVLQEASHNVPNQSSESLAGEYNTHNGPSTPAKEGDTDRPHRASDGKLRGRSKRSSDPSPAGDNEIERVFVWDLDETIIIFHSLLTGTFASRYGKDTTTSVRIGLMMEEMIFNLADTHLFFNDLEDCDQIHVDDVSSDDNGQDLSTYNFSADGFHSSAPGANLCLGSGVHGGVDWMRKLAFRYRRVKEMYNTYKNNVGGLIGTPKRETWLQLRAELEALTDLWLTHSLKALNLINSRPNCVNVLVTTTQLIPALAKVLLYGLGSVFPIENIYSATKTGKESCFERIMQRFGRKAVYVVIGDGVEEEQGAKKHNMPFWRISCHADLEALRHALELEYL
# Target sequence (Q15475 whole entry, looked up): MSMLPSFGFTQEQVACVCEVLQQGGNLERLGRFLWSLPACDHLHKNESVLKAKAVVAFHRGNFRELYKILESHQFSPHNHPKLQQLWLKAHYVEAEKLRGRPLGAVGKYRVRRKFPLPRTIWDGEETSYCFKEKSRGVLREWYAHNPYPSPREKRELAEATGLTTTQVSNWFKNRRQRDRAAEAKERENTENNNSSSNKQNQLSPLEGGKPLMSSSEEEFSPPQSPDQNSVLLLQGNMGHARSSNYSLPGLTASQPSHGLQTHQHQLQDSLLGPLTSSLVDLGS
#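 Homogeneous AlphaScreen proximity assay pairing GST-Six1 with His-tagged Eya2 (added as 5X mix: 250 nM and 500 nM) in 50 mM Tris pH 8.0, 300 mM NaCl, 1 mM TCEP. Glutathione donor and nickel acceptor beads; 1 h, 37 °C, dark.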
# D2 PAM: potentiates the human D2 dopamine receptor allosterically; P14416; DiscoveRx D2 beta-arrestin cells, luminescence, 90 min; 100% = 57 uM dopamine signal; 0.23% of 360,000 active; potentiation, % (test concentration not listed); active = potentiation of 50% or more; inconclusive = 30% to 50%; inactive = 30% or less;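 note: compound concentration not given in the record; tested on top of an EC20 dose of dopamine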
#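 PathHunter D2 cells, attached overnight at 37 deg C, received compound in DMSO plus dopamine at EC20 (50 nM final) for 90 min at 37 deg C. Beta-arrestin recruitment was read as luminescence after 1 h with detection reagent at ambient temperature.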
# CtBP-E1A blk: blocks the CtBP interaction with E1A; AlphaScreen GST-E1A/His-CtBP binding, 1536-well; hits give low values; control for the full effect not named in the record; activity change, % (no concentration beside the values); 0.49% of 340,000 active; AID 651724; in the data active means activity change below about -65%; inconclusive means about -30% to -65%; inactive means above about -30%; note: % is set by controls: 0 for no effect and ±100 for the full control effect; compound concentration not given in the record
#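 AlphaScreen with 125 nM GST-E1A and 125 nM His-CtBP (5X stocks) in Tris pH 8.0, 300 mM NaCl, BSA, Tween 20, TCEP. Compounds preincubated 2 h at 37 deg C, then glutathione donor/nickel acceptor beads added for 1 h at 37 deg C in dark.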
# D2 agonist: activates the human D2 dopamine receptor | activation, % (test concentration not listed) | DiscoveRx PathHunter D2 beta-arrestin, luminescence, 90 min; 100% = 57 uM dopamine signal | P14416 | 0.084% of 360,000 active; in the data active = activation above about 40%; inconclusive = about 15% to 40%; inactive = below about 15%; note: compound concentration not given in the record; the text of the record calls up to 30% inactive
#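 DiscoveRx PathHunter D2 beta-arrestin cells (2,100/well) attached overnight, then compound-stimulated 90 min at 37 C in HBSS/10 mM HEPES/0.1% Tween-20 buffer; beta-galactosidase complementation read by luminescence after 1 h at ambient temperature. Dopamine 57 uM final (EC100) as control.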
# gsp antagonist: antagonists of gsp mutant (McCune-Albright syndrome). gsp-mutant cells, cAMP HTRF, 30 min; control for the full effect not named in the record. Potency, µM (series often up to 76.9 µM), without a hit: at the top dose activity change, negative = inhibition, actives largely listed as inhibitors. 0.4% of 340,000 active. AID 624288; active = falling curve of any shape with a large fitted effect; inconclusive = falling curve, mostly with a smaller effect; inactive = flat or rising curve; cell line not stated here;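 note: intracellular cAMP measured with PDE inhibitor Ro 20-1724 present during compound exposure; potency is the fitted concentration of half-maximal effect; % is set by controls: 0 for no effect and ±100 for the full control effect; nearly all actives have a fitted effect of over 65% in size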
#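 Cells in G418 medium, seeded 16-24 h, 37C; buffer exchange to DPBS + 1 mM CaCl2, 0.5 mM MgCl2, 0.05% BSA; cpds in DMSO + […] (300 uM stock), 30 min 37C; HTRF cAMP detection.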
# gsp ag: activates gsp, the McCune-Albright syndrome mutation | gsp mutant cells, cAMP HTRF, 30 min; control for the full effect not named in the record | Potency, µM (doses to about 76.9 µM), inactives show at the top dose activation (cAMP increase), most hits filed as activators | 0.13% of 340,000 active | AID 624287; active = well fitted activation curve with a large enough effect; inconclusive = small, poorly fitted or top-dose-only effect, or another doubt; inactive = no such curve, though single readings can be large or run the other way; cell line not stated here;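 note: phosphodiesterase inhibitor Ro 20-1724 added with compounds to block cAMP breakdown; potency is the fitted concentration of half-maximal effect; nearly all actives have a fitted effect of over 60% in size; about a fifth of the inactives were tested at one dose only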
#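 Cells in DMEM/10% FBS with G418 were pretreated with compounds in DMSO plus […] (300 uM stock) for 30 min at 37C. cAMP was measured by HTRF (cAMP-d2 plus anti-cAMP antibody-K) after 30 min at room temperature.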
# Active calls of the source: *; ? = inconclusive; . = no result given; [ ] = another dose, or the depositor's remark.
No.	smiles	CtBP-E1A blk	D2 PAM	gsp ag	gsp antagonist	D2 agonist	Six1-Eya2 blk
1	Cc1sc(NC(=O)CSc2n[nH]c(N)n2)c(C#N)c1C	-3.1	-10.1	49.2%[15.4 µM]	10.1%	-5.2	-15.6
2	CC(C)c1ccc(N2C(=O)CC(=O)NC2=O)cc1	-4.7	-10.2	-32.2%[inhibitor]	8.5%	3.1	-2.4
3	NP(=O)(OCC(F)(F)F)Oc1ccccc1 (centres undefined)	-23.1	11.3	21.0%	14.3%	-4.4	1.0
4	O=C(c1ccco1)c1cn(Cc2ccccc2)c2ccccc12	2.7	-2.0	?	2.3%	1.0	-4.4
5	CCN(CC)c1ccc(N=Cc2c(O)n(Cc3ccco3)c(=O)[nH]c2=O)cc1	-5.5	-4.6	2.4%[15.4 µM]	5.2%	0.2	-0.7
6	O=C1NC(=O)N(CCC2=CCCCC2)C(=O)/C1=C\c1cccs1	5.9	11.3	-16.5%	11.1%	-1.3	-3.9
7	COc1ccc(CCNCc2ccc(C)s2)cc1OC	5.2	-19.2	23.0%[15.4 µM]	.	-1.6	-6.4
8	Cc1cccc(-n2c(O)c(/C=N/NC(=O)c3ccncc3)c(=O)[nH]c2=O)c1	-26.4	8.6	-3.0%[15.4 µM]	-3.4%	-2.1	?
9	CN1CCN(C(=O)COc2ccc(N(C)S(=O)(=O)c3ccc(F)cc3)cc2)CC1	12.5	-26.2	12.8%[15.4 µM]	-19.4%	-3.6	0.6
10	CCOC(=O)C1=C(N)Oc2cc(C)oc(=O)c2C12C(=O)N1c3c(cc(OC)cc32)C(C)=CC1(C)C (centres undefined)	0.3	-3.4	-7.9%	10.0%	1.2	-0.6
11	CN1C(=O)C(=Cc2ccc(N3CCOCC3)o2)C(=O)N(C)C1=S	-2.2	-8.3	8.3%[15.4 µM]	15.7%	-2.1	12.4
12	Cc1cc(OC(=O)N(C)C)nc(SCc2c(Cl)cccc2Cl)n1	.	-27.9	4.1%	?	-2.2	22.1
13	C=C[C@@]12CN(C)[C@H]3[C@H]1[C@@]1(C(=O)Nc4ccccc41)C1CC2[C@@H]3CO1	-7.2	-5.0	.	0.4%	-4.0	2.8
14	C1=NCCc2c1[nH]c1ccccc21	-9.8	-16.2	10.4%[15.4 µM]	-8.6%	9.7	-3.7
15	CC1=CC(=O)C2=C(C)CC(O)C3C(C)C(=O)OC3C12 (centres undefined)	-1.7	2.8	16.0%	-1.6%	2.0	0.3
16	CCOCCCNC(=O)C1c2cc(OC)c(OC)cc2C(=O)N2CCCCC12 (centres undefined)	-0.3	16.1	4.9%	7.3%	-1.7	2.1
17	CC(=O)c1ccc(NC(=O)N2C[C@H]3C[C@@H](C2)c2cccc(=O)n2C3)cc1	-0.2	-23.0	.	0.7%	-3.0	0.9
18	COc1cccc(OCC(=O)N2CCN(C)CC2)c1	3.4	-1.5	?	-1.2%	0.4	5.7
19	CC1=CC(=C2C(=O)NC(=S)NC2=O)C=C(C(F)(F)F)N1C	-11.7	8.0	-54.7%[inhibitor]	9.8%	-1.3	-7.4
20	C=C1C2[C@H](OC(C)=O)[C@@H]3CC(=O)[C@]4(C)OC[C@@]3(C)[C@@]4(O)[C@@H](OC(C)=O)[C@H](OC(C)=O)[C@@]2(COC(=O)c2ccccc2)[C@@H](OC(C)=O)C[C@@H]1O (some centres undefined)	4.0	7.5	.	4.9%	-3.5	-2.1
21	COc1cc2c(c(OC)c1OC)-c1ccc(O)c(=O)cc1[C@@H](N)CC2	-9.9	-5.7	-15.5%	-5.7%	-0.4	?
22	CC1=C(C)CC2(C(=O)NC(=O)NC2=O)C(C)C1 (centres undefined)	9.3	-5.0	0.5%	12.6%	-6.9	3.5
23	CCC(=NCc1ccco1)c1c(O)n(C2CCCCC2)c(=O)[nH]c1=O	-5.3	2.9	24.4%	-6.4%	-1.4	-10.7
24	Cc1ccc(OC(=O)N(C)C[C@@H]2OCc3cnnn3CCCC(=O)N([C@@H](C)CO)C[C@H]2C)cc1	7.4	2.1	-52.6%[inhibitor]	.	-4.8	6.9
25	C[N+](C)(C)CC1CCCC1=O (centres undefined)	12.4	-13.6	-12.9%	5.9%	-2.0	4.1
26	COC(=O)C1=C(c2ccc(F)cc2OCc2ccccc2)C[C@@H]2CC[C@H]1N2C(=O)NCc1ccc([N+](=O)[O-])cc1	-10.5	-8.8	6.4%	-11.6%	-0.6	-15.7
27	O=C(Cc1ccccc1)N1CCN(C2CCCC2)CC1	11.8	-12.3	7.4%	9.0%	0.9	10.0
28	CCC(=O)OC1(c2ccccc2)CCN(C)CC1C (centres undefined)	-5.5	-3.3	9.8%[15.4 µM]	-10.8%	-1.3	1.1
29	COC(=O)C1=C(c2cc3ccccc3s2)C[C@@H]2CC[C@H]1N2C(=O)NCCNC(C)=O	2.8	-36.7	.	1.6%	-4.6	5.4
30	CC(=O)N1Cc2cnnn2-c2ccccc2C1C#N (centres undefined)	6.2	1.9	.	3.5%	0.8	4.5

# The list goes on, overlapping the part above by two compounds.
No.	smiles	CtBP-E1A blk	D2 PAM	gsp ag	gsp antagonist	D2 agonist	Six1-Eya2 blk
29	COC(=O)C1=C(c2cc3ccccc3s2)C[C@@H]2CC[C@H]1N2C(=O)NCCNC(C)=O	2.8	-36.7	.	1.6%	-4.6	5.4
30	CC(=O)N1Cc2cnnn2-c2ccccc2C1C#N (centres undefined)	6.2	1.9	.	3.5%	0.8	4.5
31	C=C1C(=O)O[C@H]2[C@H]1[C@H](OC(=O)CC(=O)O[C@@H]1C[C@@H](C)[C@@H]3C=CC(=O)[C@@]3(C)[C@H]3OC(=O)C(=C)[C@H]13)C[C@@H](C)[C@H]1C=CC(=O)[C@]12C	-10.3	-9.0	?	-12.5%	-1.0	?
32	CC1CCCN1CCC(C(N)=O)(c1ccccc1)c1ccccc1 (centres undefined)	-0.2	-11.6	-5.3%	-13.6%	-2.6	-7.1
33	CNC(C(=O)c1ccccc1)C(OC(C)C)c1ccc(Cl)cc1 (centres undefined)	3.7	-13.8	11.4%	0.7%	-1.7	5.0
34	COc1cccc(C(c2nnnn2C(C)(C)C)N2CCC3(CC2)C(=O)NCN3c2ccccc2)c1OC (centres undefined)	-7.5	-2.6	.	.	5.2	-12.5
35	O=C1C(=O)N(c2ccccc2)P(=O)(N(CCCl)CCCl)N1c1ccccc1	5.2	-0.7	?	7.6%	0.2	9.3
36	Cc1nc2cc([N+](=O)[O-])ccc2c(=O)n1-c1cccc(Br)c1	-3.6	4.5	5.4%[15.4 µM]	-4.6%	12.9	-24.0
37	CC(CNC(=O)CCS(=O)(=O)c1ccc2c(c1)oc(=O)n2C)c1ccccc1 (centres undefined)	10.9	-4.8	-7.1%	2.5%	-1.2	1.0
38	C=CCN1C(=O)NC(=O)/C(=C/c2cc3c4c(c2)CCCN4CCC3)C1=O	0.7	1.7	?	-5.9%	0.8	-8.5
39	CC12CC[C@H]3[C@@H](CCC4(O)C[C@H](O)CCC34/C=N/NC(=O)Cc3ccccc3)C1(O)CCC2C1=CC(=O)OC1 (some centres undefined)	5.1	0.0	-22.2%[15.4 µM]	-5.2%	-1.0	-1.8
40	CCOc1ccc(Cn2c(=O)oc3ccc(C)cc32)cc1OC	-0.6	-13.1	17.9%	?	1.3	10.1
41	O=C(C(Cc1ccccc1)NS(=O)(=O)c1cccc2nsnc12)N1CCC2(CC1)OCCO2 (centres undefined)	14.6	-5.0	-54.1%[inhibitor]	-14.2%	-1.3	1.9
42	Cc1cc(NC(=O)CSc2nnc(C3CC3)n2N)no1	-22.6	-11.0	11.8%	2.7%	-1.4	-0.7
43	CCN(CC)C(=O)c1ccc(NC(=O)COC(=O)c2ccc(Cl)s2)cc1	.	17.7	-4.6%	-1.1%	2.0	3.6
44	Cc1nc2ccccc2c(=O)n1-c1ccccn1	-3.1	2.4	-8.2%	-9.5%	3.1	0.9
45	CCCNC(=O)N1[C@H]2CC[C@@H]1C(C(=O)OC)=C(c1cccc(Cl)c1)C2	5.5	-2.5	27.7%	-0.8%	-4.3	1.1
46	NC(Cc1ccccc1)c1nc(-c2ccccc2)no1 (centres undefined)	-2.0	-10.1	?	-13.8%	2.7	3.6
47	Cc1nn(Cc2ccccc2)c(Cl)c1C(=O)Nc1ccc(OC(F)(F)F)cc1	-2.0	-10.5	3.6%	-0.3%	7.8	3.6
48	Cc1ccc2c(C)cccc2c1	-6.5	-6.1	.	3.0%	-2.7	8.3
49	N#C/C(=C\c1ccc(O)cc1)C(=O)O (tested in a mixture with another compound)	-14.3	-9.5	.	19.5%	-5.5	8.0
50	CCCCCn1c(=O)c(C(=O)Nc2cnccn2)c(O)c2ccccc21	1.4	-7.8	-18.3%[15.4 µM]	4.2%	-1.4	3.0
51	O=C(NC(=C(Cl)Cl)P(=O)(c1ccccc1)c1ccccc1)c1ccccc1	-2.3	5.0	11.2%[15.4 µM]	3.9%	0.0	9.5
52	COc1ccc2c(c1)c(C(=O)O)c(C)n2CC(C)C	22.4	-9.9	-1.3%	-19.5%	0.1	-1.7
53	c1ccc2sc(NC3=NCCN3)nc2c1	-1.5	-5.6	22.6%	9.1%	-0.2	0.5
54	COc1ccc(C=C2C(=O)NC(=S)NC2=O)cc1	-1.8	-13.8	3.0%	-0.2%	-2.6	9.1
55	CCOc1cc(C2NCc3ccccc3-n3cccc32)ccc1OC (centres undefined)	-1.0	-23.6	-30.6%	9.0%	-8.9	-22.8
56	OC(Cc1ccccc1)(c1ccccc1)C1CN2CCC1CC2 (centres undefined)	1.3	-4.5	16.4%	6.3%	-3.7	0.0
57	COC(=O)c1cn(CCOc2ccccc2)c2ccccc12	23.8	-4.0	-41.4%[inhibitor]	1.8%	5.2	36.8
58	Cc1ccc(-n2c(CNCc3ccc(F)cc3)nc3ccccc3c2=O)cc1	6.8	-5.6	-13.4%	-1.6%	-6.7	-7.9
59	CC(C)=CCc1c(O)cc2c(c1O)C(=O)CC(c1ccc(O)cc1)O2 (centres undefined)	2.8	-31.1	.	-7.9%	8.0	-0.9
60	CN1C(=O)CN=C(c2ccc[nH]2)c2cc(Cl)ccc21 (tested in a mixture with another compound)	6.6	-7.3	-45.1%[inhibitor]	.	-1.8	-2.4
61	COc1ccc(-n2nnnc2C(c2cccc3ccccc23)N2CCC(n3c(=O)[nH]c4ccccc43)CC2)cc1 (centres undefined)	-14.3	3.8	.	.	13.2	-11.3
62	O=c1c2ccccc2nc(-c2ccccc2F)n1-c1ccccc1	4.8	-0.8	-1.7%	-2.7%	1.1	1.5
63	O=C(CCc1nc(-c2ccccc2F)no1)N1CCC2(CC1)OCCO2	-0.7	-9.5	14.9%	6.9%	1.7	-0.6
64	CCOC(=O)CNC(=O)N1Cc2ccc(Br)cc2-n2nncc2C1	1.6	2.3	.	.	2.2	5.1

# Only part of the results is shown, so the mix of outcomes need not match the whole.
